Compound activity (PubChem)
ALR inh – inhibitors of human ALR sulfhydryl oxidase, primary screen, biochemical, H2O2 detection, HRP-luminol luminescence, single point; purified ALR, DTT oxidation; inhibition, % (concentration not given with the values); 290,000 compounds, 3.8% hits; AID 485317, 2010;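 active = mean and each replicate at 75% or more; inconclusive = only one of the two met; inactive = neither met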;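 also: stock transfer was 7.5 nL into about 7.5 µL; 0% = neutral wells and 100% = wells with inactivated enzyme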
Target sequence (P55789 whole entry, looked up): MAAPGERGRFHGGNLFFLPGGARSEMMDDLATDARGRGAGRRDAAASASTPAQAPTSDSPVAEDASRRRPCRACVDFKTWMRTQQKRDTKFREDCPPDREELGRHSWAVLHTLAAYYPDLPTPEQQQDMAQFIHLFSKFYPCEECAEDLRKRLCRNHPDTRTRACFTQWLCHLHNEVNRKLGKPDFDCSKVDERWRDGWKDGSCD
Ecoli rRNA inh – reduced GFP signal of wild-type E. coli, primary screen, bacterial rRNA inhibitor project, GFP/RFP fluorescence, OD600, single point; E. coli WT GFP vs humanized-ribosome RFP mutants, 24 h; hits give low values; DMSO median 0, no signal -100; GFP signal change (wild-type ribosome), % (test concentration not listed); 350,000 compounds, 1.6% hits; AID 720706, 2013;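 active = significant combined selectivity score with lowered wild-type GFP, culture density cut under 30%, mutant RFP and density less affected; inactive = any of these conditions unmet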; also: one replicate is shown; some compounds called inactive have numbers as strong as hits
RanGTP-Impb inh – inhibitors of RanGTP-importin-beta interaction, primary screen, biochemical, FRET, CFP-Ran, YFP-importin-beta, homogeneous; Ran GTPase (GTP-bound) - importin-beta complex; cell-free CFP-Ran/YFP-importin-beta FRET ratio; inhibition, % (concentration not given with the values); 300,000 compounds, 1.1% hits; AID 2216, 2009;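 active = most replicates above 15%; inconclusive = exactly half above 15%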;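 also: 0% = DMSO wells and 100% = Ran loaded with GDP instead of GTP; wells of about 40 µL received 100 nL stock; the first replicate is given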
T cruzi repl – inhibitors of intracellular T. cruzi growth, primary screen, luminescence, NIH3T3 host cells. T. cruzi beta-gal in NIH3T3, 90 h. inhibition, % (concentration not given with the values). 300,000 compounds, 1.4% hits. AID 1885, 2009;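 active = mean inhibition across valid replicates above about 55%, limit read from the data; inconclusive = mean below that limit but half or more replicates reach it; inactive = mean below it, under half of replicates reach it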;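 also: signal also drops with host cell toxicity which is not excluded here; 0% = plate median of DMSO wells and 100% = zero luminescence signal; higher percent means less beta-gal luminescence so fewer parasites; stock transfer was 50 nL into about 50 µL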
MLL AF4-AF9 inh – inhibitors of AF4 peptide binding to AF9, primary screen, biochemical, AlphaScreen, biotin-AF4 peptide, FLAG-AF9, single point | AID 651704, 2012 | 350,000 compounds, 0.47% hits | Protein AF-9 (Homo sapiens), P42568 | inhibition, % at 10 µM;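 active = every replicate reaching a set inhibition limit, whatever the replicate mean, cut at about 25% in these data; inconclusive = mean inhibition reaches that limit but some replicates miss it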;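 also: 0% = plate neutral control median and 100% = total signal loss; the record names both 10 and 1 µM as test concentration; the first replicate is given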
Target sequence (P42568 whole entry, looked up): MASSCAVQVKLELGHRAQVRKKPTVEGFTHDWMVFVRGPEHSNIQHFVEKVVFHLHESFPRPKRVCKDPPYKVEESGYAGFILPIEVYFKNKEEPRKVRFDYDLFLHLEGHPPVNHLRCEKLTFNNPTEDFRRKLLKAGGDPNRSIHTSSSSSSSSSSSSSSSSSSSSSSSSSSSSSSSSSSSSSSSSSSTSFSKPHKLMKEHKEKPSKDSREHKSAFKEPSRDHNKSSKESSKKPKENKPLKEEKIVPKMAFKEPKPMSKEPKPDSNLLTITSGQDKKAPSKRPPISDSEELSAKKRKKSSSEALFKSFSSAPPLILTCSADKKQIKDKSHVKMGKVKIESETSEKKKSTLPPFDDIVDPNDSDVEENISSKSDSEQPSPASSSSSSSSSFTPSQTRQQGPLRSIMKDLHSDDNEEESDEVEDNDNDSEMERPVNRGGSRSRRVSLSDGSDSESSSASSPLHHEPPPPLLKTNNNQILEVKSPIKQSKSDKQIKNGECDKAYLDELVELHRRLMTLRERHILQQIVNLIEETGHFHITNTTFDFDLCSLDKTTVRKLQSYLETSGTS
FGF22 binding – binders of human FGF22 protein, primary screen, FGF22 synaptogenesis inhibitor project, biophysical, thermal shift, single point; Fibroblast growth factor 22 (Homo sapiens), Q9HCT0; calls only at 9.99 µM; recombinant FGF22 thermal shift, SYPRO orange fluorescence; percent of sucrose octasulfate shift, DMSO zero; 340,000 compounds, 1.5% hits; AID 651658, 2012;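 active = melting point raised past a set limit in the mean and every replicate; inconclusive = no clear call; three in four hits are not shown here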
Target sequence (Q9HCT0 whole entry, looked up): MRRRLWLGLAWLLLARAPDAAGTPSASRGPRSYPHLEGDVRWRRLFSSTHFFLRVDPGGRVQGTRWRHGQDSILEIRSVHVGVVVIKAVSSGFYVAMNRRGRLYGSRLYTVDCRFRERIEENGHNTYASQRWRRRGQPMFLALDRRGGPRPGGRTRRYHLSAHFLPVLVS
Beta apoptosis – inhibitors of cytokine-induced beta cell apoptosis, primary screen, luminescence; INS-1E cytokine-induced death, ATP luminescence, 48 h; percent of positive-control rescue, neutral wells zero; protection from apoptosis, % (no concentration beside the values); 300,000 compounds, 0.8% hits;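 active = all replicates at 75% or more, or half of them and the mean; inconclusive = half reach 75% but not the mean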;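 also: 0% = cytokine-treated negative control wells and 100% = positive control rescue; higher means more ATP so stronger rescue from cytokine killing; wells of about 40 µL received 100 nL stock; the first replicate is given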
Calb FLC – C. albicans growth inhibition with fluconazole, primary screen, CaCi-2 strain, Alamar Blue fluorescence. C. albicans CaCi-2 (fluconazole-resistant clinical isolate) + fluconazole, 48 h. growth inhibition, % (concentration not given with the values). 300,000 compounds, 0.57% hits;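 active = most replicates above 75%; inconclusive = exactly half above 75%; inactive = most below 75%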;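 also: all wells also contain fluconazole at 8 µg/ml as a sub-toxic cotreatment; 0% = median of DMSO wells and 100% = median of geldanamycin control wells; wells of about 8 µL received 7.5 nL stock; the first replicate is given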
Ecoli rRNA inh OD600 – second read-out of Ecoli rRNA inh, no call of its own (marks repeat the call); OD600 change, %; measured here: OD600 growth;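 optical density of the mix in the first replicate; 0 = DMSO median and -100 = no signal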
Ecoli rRNA inh RFP – second read-out of Ecoli rRNA inh, no call of its own (marks repeat the call); RFP signal change, %; measured here: RFP humanized mutant strains;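 first replicate; 0 = DMSO median and -100 = no signal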
* marks the source's active call; other numbers are inactive results; i = inactive; u = inconclusive; x = not tested or not shown; + = active, no number. Only part of the results is shown; rates above refer to the full screens.

SMILES	ALR inh	Ecoli rRNA inh	Ecoli rRNA inh OD600	Ecoli rRNA inh RFP	RanGTP-Impb inh	T cruzi repl	MLL AF4-AF9 inh	FGF22 binding	Beta apoptosis	Calb FLC
COC(=O)c1sc(C(C)(C)C)cc1CS(=O)(=O)c1ccc(Cl)cc1	0	-31*	-14*	-2.1*	4.0	17	-3.1	+	-1	16
CCN(CC(=O)Nc1ccccc1Br)C1CCCCC1	-5	-47	-52	-19	-4.6	8	-1.5	i	-4	19
CCOC(=O)CCC(=O)Nc1ccc(S(=O)(=O)N2CCC(C)CC2)cc1	-8	0	8	-1.7	7.5	5	x	x	-4	25
Cc1ccccc1C(=O)Nc1cc(S(=O)(=O)N2CCOCC2)ccc1N1CCN(C)CC1	-11	16	1	-1.5	x	x	0.3	i	-2	x
C=CCOc1c2ccc(C(=O)N(CC)c3ccc(OC)cc3)cc2nn1C	6	-5	-8	1.6	5.6	-8	-10.0	i	4	-6
COc1ccc(N2C(=O)c3ccccc3NC2c2ccc(OC)c(CN3CCOCC3)c2)cc1 (centres undefined)	0	12	8	1.8	3.2	1	-1.9	i	1	3
CCN(CC)S(=O)(=O)c1cccc(-c2nnc(SCC(N)=O)n2N)c1	x	7	1	-7.1	0.1	-2	-77	i	1	-2
O=C(CCCn1c(SCC(=O)c2ccc(F)cc2)nc2ccccc2c1=O)NCc1ccco1	-4	x	x	x	0.5	20	x	x	2	6
Cc1nn(CC(=O)N2CCC(N3CCCCC3)CC2)c(=O)c2c1sc1ccccc12	-2	3	10	0.2	2.5	12	2.2	i	-3	8
O=C(O)CC1(Cc2nc(-c3cccs3)no2)CCCC1	-12	-3	-10	-0.9	-3.8	4	-3.0	i	0	17
Cc1cc([N+](=O)[O-])nn1CCCC(=O)Nc1c(C)n(C)n(-c2ccccc2)c1=O	0	8	16	-4.8	1.5	-17	5.7	i	-5	-2
COC(=O)CCNCCSc1nnc(-c2ccco2)n1Cc1ccccc1	3	9	3	0.0	-1.0	8	-7.6	i	-4	5
CCOC(=O)N1CCN(C(=O)C2CCN(CC3CCCCC3)CC2)CC1	3	17	7	-2.0	-0.1	-1	-3.5	i	-4	-7
O=[N+]([O-])c1cccc(S(=O)(=O)N2CCN(S(=O)(=O)N3CCOCC3)CC2)c1	3	3	2	-3.0	-1.9	-17	-0.5	i	x	3
O=C(Cn1cnc2c(nnn2Cc2ccccc2)c1=O)c1ccc(Cl)cc1	-10	6	17	-6.0	0.6	12	-2.5	i	3	2
Cc1cc(C(=O)COc2cccnc2[N+](=O)[O-])c(C)n1-c1ccccc1F	-13	-15	-20	-6.9	-3.5	11	8.2	i	1	-9
Cn1nc(C(C)(C)C)cc1C(=O)O	-6	10	13	1.4	4.8	-9	-2.8	i	-6	-1
CN(C)c1ccc(C(C(=O)NCc2ccccc2)N(Cc2cccnc2)C(=O)c2snc(C(N)=O)c2N)cc1 (centres undefined)	x	-8	-5	3.5	1.4	-5	11	i	x	1
CCCCn1c(N)c(N(CCOC)C(=O)CSCC(=O)Nc2cccc(C)c2)c(=O)[nH]c1=O	7	3	5	1.8	3.0	-11	-1.3	i	x	3
CC1=C(C(=O)OCc2ccccc2)C(c2ccco2)n2ncnc2N1 (centres undefined)	-2	3	3	-1.2	u	-2	-2.2	i	8	2
Cn1c(SCC(=O)NCc2ccccc2)nnc1C1CC1	-2	x	x	x	0.4	-17	x	x	2	3
COCCn1c(-c2ccc(OC)cc2)cnc1SCC(=O)Nc1cccc2ccccc12	x	x	x	x	-2.0	-24	x	x	-1	6
CCCCSc1nnc2c(n1)[nH]c1ccccc12	-5	x	x	x	0.3	-40	x	x	6	-10
O=C(NC(=S)NCc1nc2ccccc2[nH]1)c1ccc(F)cc1	76*	-7	-9	3.1	2.3	-11	-0.4	i	-22	2

Some of these compounds in order of length of the SMILES, ascending.
SMILES	ALR inh	Ecoli rRNA inh	Ecoli rRNA inh OD600	Ecoli rRNA inh RFP	RanGTP-Impb inh	T cruzi repl	MLL AF4-AF9 inh	FGF22 binding	Beta apoptosis	Calb FLC
Cn1nc(C(C)(C)C)cc1C(=O)O	-6	10	13	1.4	4.8	-9	-2.8	i	-6	-1
Cn1c(SCC(=O)NCc2ccccc2)nnc1C1CC1	-2	x	x	x	0.4	-17	x	x	2	3
O=C(NC(=S)NCc1nc2ccccc2[nH]1)c1ccc(F)cc1	76*	-7	-9	3.1	2.3	-11	-0.4	i	-22	2
O=[N+]([O-])c1cccc(S(=O)(=O)N2CCN(S(=O)(=O)N3CCOCC3)CC2)c1	3	3	2	-3.0	-1.9	-17	-0.5	i	x	3
CN(C)c1ccc(C(C(=O)NCc2ccccc2)N(Cc2cccnc2)C(=O)c2snc(C(N)=O)c2N)cc1 (centres undefined)	x	-8	-5	3.5	1.4	-5	11	i	x	1

Following part
SMILES	ALR inh	Ecoli rRNA inh	Ecoli rRNA inh OD600	Ecoli rRNA inh RFP	RanGTP-Impb inh	T cruzi repl	MLL AF4-AF9 inh	FGF22 binding	Beta apoptosis	Calb FLC
CN(CC(=O)Nc1ccc(F)c(F)c1F)C(=O)CC1OC(=O)c2ccccc21 (centres undefined)	-3	4	9	0.0	4.2	-6	0.8	i	-3	-3
CC1(C)Cc2cccc(OCC(=O)OCC(=O)Nc3ccc(C(N)=O)cc3)c2O1	-4	1	3	-2.6	x	7	-1.5	i	0	-3
O=C(NCc1ccco1)c1ccc(Cn2cc([N+](=O)[O-])cn2)o1	-8	x	x	x	4.5	-14	x	x	-5	-12
O=C(COC(=O)/C=C/c1cccc(C(F)(F)F)c1)Nc1cccc2ccccc12	-5	x	x	x	1.9	-2	x	x	7	u
Cn1c(=O)oc2cc(S(=O)(=O)N3CCN(c4ccccc4)CC3)ccc21	0	x	x	x	1.1	6	x	x	-2	-9
Cc1cccc(SCC(=O)Nc2ccccc2[N+](=O)[O-])c1	-30	-26*	-4.2*	-0.1*	1.1	-5	8.4	x	-4	-3
Cc1nn(-c2ccc(C(=O)N3CCN(S(=O)(=O)c4ccccc4C(F)(F)F)CC3)cc2)c(C)c1Cl	-1	9	8	0.0	x	x	-1.2	i	24	x
COc1ccc(-c2c(C(C)=O)c(C)nc3sc4c(=O)n(-c5ccc(C)cc5)nnc4c23)cc1	-7	x	x	x	3.4	40	x	x	11	3
CCOC(=O)c1c(S(=O)(=O)N2CCCC(C(=O)Nc3ncccc3C)C2)c(C)n(C)c1C (centres undefined)	-2	3	6	3.6	1.8	-13	0.1	i	-5	10
O=c1c2nnn(Cc3ccc(Cl)cc3)c2ncn1Cc1ccc(F)cc1	-13	10	9	-0.2	-4.3	-1	-0.6	i	6	-12
COC(=O)COc1ccc(NS(=O)(=O)c2cccc([N+](=O)[O-])c2)cc1	-14	15	16	1.5	3.5	1	0.2	x	-4	0
CCN1C(=O)C(=O)N(CC(=O)Nc2cc(C)ccc2C)C1=O	x	3	9	-1.5	x	x	-6.7	i	-2	x
O=Cc1sc(=O)n(Cc2cccc(C(=O)O)c2)c1Cl	14	13	7	4.8	-2.1	2	-0.6	i	-5	-2
Cc1nc(SCC(=O)c2ccc(F)c(F)c2)[nH]c(=O)c1Oc1ccc(F)cc1	-2	-1	4	1.7	-2.3	x	-8.9	i	-5	5
O=C(c1cccc(COCC(F)(F)C(F)F)c1)N1CCN(c2ccccc2)CC1	0	x	x	x	-2.6	15	x	x	0	-1
CS(=O)(=O)N(CCc1ccccc1)CC(=O)Nc1ccc2c(c1)OCO2	-28	x	x	x	-3.6	-2	x	x	1	-14
CCOc1ccc(C2C(C#N)=C(N)N3C(=C2C#N)Sc2ccccc23)cc1 (centres undefined)	-6	x	x	x	u	29	x	x	x	36
CCOC(=O)c1ccc(NC(=S)NCC(O)c2ccccc2)cc1 (centres undefined)	6	x	x	x	3.8	-4	x	x	-4	-2
Cc1cc(NS(=O)(=O)c2ccc(NC(=S)NCc3ccccc3)cc2)no1	-2	7	11	0.6	1.9	-11	-2.6	x	-2	8
Cn1nc(C(C)(C)C)cc1C(=O)NNC(=O)c1ccccc1Cl	3	2	5	-0.5	-1.1	x	-0.2	i	x	13
Cc1cnc(C(=O)OCC(=O)Nc2cccc(S(=O)(=O)N3CCOCC3)c2)cn1	-18	12	13	6.0	x	x	-3.0	i	0	x
COC(=O)Cn1c(=NC(=O)CN2C(=O)CCC2=O)sc2cc(S(N)(=O)=O)ccc21	33	x	x	x	3.4	-12	x	x	-5	0
CCOc1ccc(NC(=S)Nc2ccc(Br)cc2Cl)cc1	1	-15	-8	-4.7	2.2	12	-0.8	i	0	35
O=C(Oc1ccccc1)c1c(Cl)cccc1P(=O)(O)O	-13	x	x	x	u	-12	x	x	-5	-3
COc1ccc2c(c1)CCC(C)N2C(=O)C(=O)c1c[nH]c2ccccc12 (centres undefined)	0	-17	-21	-1.7	-1.6	8	-0.1	i	0	-1
CN(C)S(=O)(=O)c1cccc(NC(=O)CCCSc2ccccc2)c1	-2	5	-16	0.1	-1.6	-1	-0.5	x	-9	0
CNC(=S)NNC(=O)c1ccccc1F	43	4	10	-0.9	3.4	-11	-3.0	i	-4	23
CCCNc1c(N)n(-c2ccccc2)c(=O)[nH]c1=O	17	x	x	x	2.9	-9	x	x	1	u
COc1cc(Br)cc2cc(C(=O)N3CCOCC3)c(=O)oc12	-9	12	3	2.7	4.4	-12	2.8	i	-6	-4
CC(C)Cc1ccc(C(C)C(=O)Nc2ncccn2)cc1 (centres undefined)	3	-20	-27	-4.4	u	13	0.0	x	2	-26
COc1cc(/C=N/NC(=O)CNS(=O)(=O)c2ccc(C)cc2)cc(OC)c1OC	-3	9	7	0.7	2.2	-6	0.4	i	-2	13
CC(=O)Nc1cccc(NC(=O)c2c(-c3ccccc3)noc2C)c1	0	x	x	x	1.3	-10	x	x	-4	1
Cc1ccc(/C=C/C(=O)Nn2cnnc2)cc1	5	x	x	x	-4.8	-10	x	x	-13	22
CCCc1nnc(NC(=O)CN2CCOCC2)s1	-18	x	x	x	1.0	-8	x	x	-1	-2
